Screening results as filed in PubChem.
rRNA inh HTS: selective bacterial rRNA inhibition in E. coli; E. coli WT GFP vs humanized-ribosome RFP mutants, fluorescence, 24 h; active compounds read low; DMSO median 0, no signal -100; GFP signal change (wild-type ribosome), % (concentration not given with the values); 1.6% of 350,000 active;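 active = significant combined selectivity score with lowered wild-type GFP, culture density cut under 30%, mutant RFP and density less affected; inactive = any of these conditions unmet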; note: one replicate is shown; some compounds called inactive have numbers as strong as hits
rRNA inh HTS OD600: further read-out of rRNA inh HTS, marked with its call; OD600 change, %; measured here: OD600 growth;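 optical density of the mix in the first replicate; 0 = DMSO median and -100 = no signal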
rRNA inh HTS RFP: second read-out of rRNA inh HTS, no call of its own (marks repeat the call); RFP signal change, %; measured here: RFP humanized mutant strains;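 first replicate; 0 = DMSO median and -100 = no signal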
* marks the source's active call; other numbers are inactive results; & = joins results of further samples.

Values in the order: rRNA inh HTS OD600	rRNA inh HTS	rRNA inh HTS RFP
O=C(C1CCCCC1)N1CC(=O)N2[C@H](CO)[C@@H](c3ccc(Br)cc3)[C@@H]2C1
    -14.0	-1.5	-0.9
O=C(Nc1ccc(F)cc1)N1C[C@@H]2[C@H](c3ccccc31)[C@@H](CO)N2C(=O)c1ccc(F)cc1
    -0.8	0.4	2.8
CN(C)C(=O)c1ccc(-c2ccc(C3[C@@H]4CN(S(=O)(=O)c5ccccc5)C[C@H]3N4)cc2)cc1 (stereo partly drawn)
    -9.7&-3.7	-6.9&-2.4	5.1&-1.8
CO[C@H]1CN(C)C(=O)c2ccc(NC(=O)c3ccc4c(c3)OCO4)cc2OC[C@@H](C)N(CCC(F)(F)F)C[C@@H]1C
    -7.4	-7.4	6.1
C[C@@H]1CN([C@H](C)CO)C(=O)c2cccc(NC(=O)CCCCCC(=O)Nc3ccccc3N)c2O[C@@H]1CN(C)CC1CCCCC1
    -4.1	0.1	-0.1
C[C@H](CO)N1C[C@H](C)[C@H](CN(C)Cc2cccc(O)c2)OCc2cn(nn2)CCCC1=O
    3.0	0.5	-0.7
Cc1ccc(S(=O)(=O)Nc2cccc3c2O[C@H](CN(C)Cc2ccc(Cl)c(Cl)c2)[C@H](C)CN([C@H](C)CO)C3=O)cc1
    2.4	1.7	2.6
COc1ccc(S(=O)(=O)Nc2cccc3c2O[C@H](CN(C)Cc2ccc(Cl)c(Cl)c2)[C@@H](C)CN([C@@H](C)CO)C3=O)cc1
    3.7	-0.6	2.9
CN1CCN(C(=O)C[C@@H]2CC[C@@H]3[C@@H](COc4ccc(NC(=O)c5cccs5)cc4C(=O)N3C)O2)CC1
    19.8	8.7	0.2
Cc1ccccc1S(=O)(=O)N1CCCCN2[C@@H](CO)[C@H](c3ccc(C#CCN(C)C)cc3)[C@@H]2C1
    7.9	4.3	7.5
Cc1ccc(S(=O)(=O)N(C)C[C@@H]2OCCCC[C@H](C)Oc3ccc(NC(=O)c4ccncc4)cc3C(=O)N([C@H](C)CO)C[C@H]2C)cc1
    -6.4	-1.8	1.9
COc1ccc(C[C@@H]2CCn3cc(nn3)COCCNC2=O)cc1
    2.7	1.8	-0.6
COc1ccc2c3c(n(C)c2c1)[C@H](CO)N(C(=O)NC(C)C)CC31CCN(Cc2nccs2)CC1
    8.7	0.1	1.1
CCC(=O)N1CC2(CN[C@H](CO)c3c2c2ccc(OC)cc2n3C)C1
    8.8	2.4	-7.1
CCCN1C[C@@H](C)[C@H](OC)CN(C)C(=O)c2ccc(NS(=O)(=O)c3cn(C)cn3)cc2OC[C@@H]1C
    -1.1	-0.9	-1.2
COc1ccc(CN(C)C[C@@H]2OCCCC[C@H](C)Oc3ccc(NS(=O)(=O)c4ccc(C)cc4)cc3C(=O)N([C@H](C)CO)C[C@@H]2C)cc1
    -27.9	2.6	11.6
C/C=C/c1ccc([C@@H]2[C@@H](CO)N(C(=O)NCCC)[C@H]2CNC(=O)C2CC2)cc1
    -2.4	-7.4	-2.1
O=C(C1CCOCC1)N1CC(=O)N2[C@H](C1)[C@H](c1ccc(-c3cccnc3)cc1)[C@@H]2CO
    -9.1	3.5	-0.6
C/C=C/c1ccc([C@H]2[C@@H](CO)N3CCCCN(C(=O)NC4CCCC4)C[C@H]23)cc1
    10.6	-0.9	-0.2
C[C@H](CO)N1C[C@H](C)[C@H](CN(C)Cc2ccncc2)Oc2ncc(C#Cc3ccncc3)cc2C1=O
    11.3	5.8	-0.9
O=C(C[C@@H]1CC[C@@H](NC(=O)c2ccncc2)[C@@H](CO)O1)NCc1ccncn1
    -4.4	1.9	-3.0
C[C@@H]1CN([C@@H](C)CO)C(=O)CCCn2cc(nn2)CO[C@@H]1CN(C)C(=O)Nc1cccc2ccccc12
    1.9	-1.5	0.7
CN(C)CC(=O)N[C@@H]1CC[C@H](CCNC(=O)C2CC2)O[C@H]1CO
    3.3	-1.2	-1.2
CO[C@H]1CN(C)C(=O)c2cc(NC(C)=O)ccc2OC[C@H](C)N(Cc2cccnc2)C[C@H]1C
    4.9	2.6	-1.0
O=C(c1ccccn1)N1C[C@@H]2[C@H](c3ccccc31)[C@H](CO)N2C(=O)c1ccccn1
    7.0	7.7	-0.5
CO[C@@H]1CN(C)C(=O)c2ccc(NS(C)(=O)=O)cc2OC[C@@H](C)N(CCC(F)(F)F)C[C@@H]1C
    -3.1	-3.0	1.8
O=C(C[C@H]1C[C@@H]2c3cc(NC(=O)Nc4ccc(F)cc4)ccc3O[C@@H]2[C@@H](CO)O1)NC1CCCC1
    -9.2	-6.0	2.2
C[C@@H]1CN([C@H](C)CO)C(=O)CCCn2cc(nn2)CO[C@@H]1CN(C)Cc1cccc2c1OCCCO2
    -2.5	-0.1	-0.5
CCCN(C)C[C@H]1Oc2ncc(C#CC3CC3)cc2C(=O)N([C@H](C)CO)C[C@H]1C
    2.7	-0.5	-5.3
C[C@H](CO)N1C[C@H](C)[C@H](CN(C)C(=O)c2cccc(F)c2)Oc2cc(C#CC3CCCC3)ccc2S1(=O)=O
    7.0	4.6	-3.6
COc1ccc(NC(=O)N(C)C[C@@H]2OCCCC[C@H](C)Oc3ccc(NS(=O)(=O)c4ccc(C)cc4)cc3C(=O)N([C@H](C)CO)C[C@H]2C)cc1
    -8.0	-1.0	1.1
C[C@@H]1CN([C@H](C)CO)C(=O)c2cc(-c3cncnc3)cnc2O[C@@H]1CN(C)C(=O)c1cccc(F)c1
    10.4	4.1	-2.7
C[C@H](CO)N1C[C@H](C)[C@H](CN(C)C(=O)C2CCC2)Oc2ncc(Br)cc2C1=O
    18.8	9.9	-2.1
O=C(Nc1cc(F)ccc1F)N[C@H]1CC[C@H](CCn2cc(C3CCCC3)nn2)O[C@@H]1CO
    -9.2	-6.7	2.8
O=C(CN1CCOCC1)N[C@@H]1CC[C@@H](CCn2cc(C3CCCCC3)nn2)O[C@H]1CO
    -3.7	-0.7	-3.6
Cc1noc(C)c1NC(=O)N(C)C[C@H]1Oc2c(NC(=O)Nc3ccccc3)cccc2C(=O)N([C@H](C)CO)C[C@H]1C
    1.6	3.2	-0.8
COCC#Cc1ccc([C@H]2[C@@H](CO)N3C(=O)CN(C(=O)C4CCOCC4)C[C@@H]23)cc1
    -6.6	2.4	1.6
Cc1ccc(S(=O)(=O)Nc2ccc3c(c2)C(=O)N([C@@H](C)CO)C[C@@H](C)[C@@H](CN(C)Cc2ccc(Cl)c(Cl)c2)OCCCC[C@@H](C)O3)cc1
    7.4	0.1	1.0
C[C@H](C(=O)N(C)C[C@H]1OCc2ccccc2-c2ccccc2C(=O)N([C@H](C)CO)C[C@@H]1C)c1ccccc1
    -0.5	-2.4	-1.5
O=C(Nc1ccccc1F)N1CC(=O)N2[C@H](CO)[C@@H](c3ccc(C#CC4CC4)cc3)[C@H]2C1
    -3.1	0.3	4.4
C[C@@H]1CN([C@H](C)CO)C(=O)c2cc(NS(=O)(=O)c3ccc(Cl)cc3)ccc2O[C@@H]1CN(C)S(C)(=O)=O
    2.2	-1.4	-1.5
CO[C@@H]1CN(C)C(=O)c2cc(NC(=O)C3CCCCC3)ccc2OC[C@@H](C)N(C(=O)c2ccccc2)C[C@@H]1C
    -5.7	-2.4	-0.8
Cc1ccc(S(=O)(=O)Nc2ccc3c(c2)CC(=O)N([C@H](C)CO)C[C@H](C)[C@H](CN(C)Cc2ccc(C(=O)O)cc2)O3)cc1
    -5.3	2.9	-1.1
CCC(=O)N1[C@H](CO)[C@H](c2ccc(C#CC(C)(C)O)cc2)[C@@H]1CN(C)C(C)=O
    1.8	0.6	-2.6
CN(C)CC#Cc1ccc([C@H]2[C@@H](CO)N3C(=O)CN(C(=O)Cc4ccccc4)C[C@H]23)cc1
    -0.6	3.3	0.8
C[C@@H]1CN([C@H](C)CO)C(=O)c2cc(NS(=O)(=O)c3ccccc3)ccc2O[C@H]1CN(C)S(=O)(=O)c1ccc(Cl)cc1
    -11.5	-8.4	2.4
CO[C@@H]1CN(C)C(=O)c2cc(NC(=O)NC3CCCC3)ccc2OC[C@@H](C)NC[C@@H]1C
    2.6	0.9	0.5
O=C(C1CC1)N1CC(=O)N2[C@H](CO)[C@H](c3ccc(C#CC4CCCC4)cc3)[C@@H]2C1
    -7.0	3.7	1.5
CO[C@H]1CN(C)C(=O)c2cc(NC(=O)NC3CCCC3)ccc2OC[C@H](C)N(CC2CC2)C[C@@H]1C
    5.4	3.8	-2.6
COc1ccc(C#Cc2cnc3c(c2)C(=O)N([C@@H](C)CO)C[C@@H](C)[C@@H](CN(C)CC2CC2)O3)cc1
    5.1	-1.8	8.4
C[C@@H]1CCCCO[C@H](CN(C)S(=O)(=O)c2ccc(Cl)cc2)[C@H](C)CN([C@@H](C)CO)C(=O)c2cc(NC(=O)Nc3cccc4ccccc34)ccc2O1
    -5.5	-2.1	-2.1
CCN1CC(=O)N2[C@H](CO)[C@@H](c3ccc(Br)cc3)[C@H]2C1
    13.3	1.2	-2.5
CCc1csc(N2[C@H](CO)[C@H](c3ccccc3)[C@@H]2CN(C)C(=O)C2CCC2)n1
    -5.0	-7.6	1.8
CC(C)NC(=O)N(C)C[C@@H]1Oc2ccccc2CC(=O)N(C)C[C@H]1C
    4.0	1.6	-0.9
N#Cc1ccc(-c2ccc(C3[C@H]4CNC[C@@H]3N4C(=O)NC3CCCC3)cc2)cc1 (stereo partly drawn)
    1.2	-0.3	-1.6
C[C@H]1CCCCO[C@H](CN(C)Cc2ccc3c(c2)OCO3)[C@@H](C)CN([C@@H](C)CO)C(=O)c2cc(NS(=O)(=O)c3ccc(Cl)cc3)ccc2O1
    -48.8	-5.0	32.6
C[C@H]1CN(C)C(=O)c2cccnc2O[C@H]1CN(C)S(C)(=O)=O
    2.3	1.9	0.8
CN1C(=O)c2cc(NS(=O)(=O)c3ccc(Cl)cc3)ccc2OC[C@@H]2O[C@H](CC(=O)N3CCc4ccccc4C3)CC[C@H]21
    -5.8	-4.5	5.8
C[C@H]1CN([C@@H](C)CO)S(=O)(=O)c2ccc(-c3cccnc3)cc2O[C@@H]1CN(C)Cc1cccnc1
    -2.6	-1.1	2.2
C[C@H]1CN([C@@H](C)CO)C(=O)c2cccc(NS(=O)(=O)c3ccc(F)cc3)c2O[C@@H]1CN(C)Cc1ccc(Oc2ccccc2)cc1
    10.9	0.1	-1.0

(cont.)
Values in the order: rRNA inh HTS OD600	rRNA inh HTS	rRNA inh HTS RFP
COc1ccccc1-c1ccc(C2[C@H]3CNC[C@@H]2N3S(=O)(=O)c2ccccc2OC)cc1 (stereo partly drawn)
    -0.2	0.4	0.6
C[C@H]1CC(=O)NCC/C=C\C[C@@H](c2cccc(Cl)c2)NC1=O
    9.4	6.9	3.2
COc1ccc(NC(=O)N2CC(=O)N3[C@H](CO)[C@@H](c4ccc(/C=C/c5ccccc5)cc4)[C@H]3C2)cc1
    -1.5	-3.8	17.4
CCC(=O)N1[C@H](CO)[C@H](c2ccc(-c3cccc(F)c3)cc2)[C@@H]1CN(C)C(C)=O
    -4.6	-0.7	0.0
CCNC[C@@H]1[C@@H](c2ccc(C#Cc3ccccn3)cc2)[C@@H](CO)N1C(=O)C1CC1
    3.5	0.5	-4.0
CCCC#Cc1ccc([C@H]2[C@H](CO)N3C(=O)CN(C(=O)c4cccc(F)c4)C[C@@H]23)cc1
    -4.6	4.7	-1.9
COc1cccc(NC(=O)N[C@@H]2C=C[C@@H](CC(=O)N3CCN(C)CC3)O[C@@H]2CO)c1
    1.9	1.3	-0.2
COc1cc(CN2[C@@H]3CNC[C@H]2C3c2ccc(-c3cccc(C)c3)cc2)cc(OC)c1 (stereo partly drawn)
    -49.2	-9.5	21.0
COc1ccc(C#Cc2ccc3c(c2)[C@H]2[C@H](CCN2C(=O)C2CCCC2)[C@@H](CO)N3)cc1
    9.2	-1.8	1.0
COc1cccc(-c2ccc3c(c2)[C@@H]2[C@@H](CCN2C(=O)C2CCCCC2)[C@@H](CO)N3)c1
    -28.2	-5.4	21.0
Cc1ccccc1-c1ccc([C@H]2[C@@H](CO)N3C(=O)CN(C(=O)Nc4ccc(F)cc4)C[C@H]23)cc1
    -68.1	-51.0	-3.6
CCNC[C@@H]1[C@H](c2ccccc2)[C@@H](CO)N1C(=O)Cc1ccccn1
    11.4	2.1	0.9
O=C(C1CC1)N1CC(=O)N2[C@@H](CO)[C@@H](c3ccc(C#CC4CCCC4)cc3)[C@@H]2C1
    -7.4	-0.9	-5.0
O=C(C1CCOCC1)N1CC(=O)N2[C@H](CO)[C@@H](c3ccc(Br)cc3)[C@H]2C1
    -8.2	5.1	3.6
COCC(=O)N[C@@H]1C=C[C@H](CC(=O)N2CCCCC2)O[C@H]1CO
    6.7	2.7	-1.3
C[C@H](CO)N1C[C@H](C)[C@@H](CN(C)Cc2ccc(Cl)c(Cl)c2)OCc2ccccc2-c2c(n(C)c3ccccc23)C1=O
    14.1	3.7	-2.4
Cc1ccccc1S(=O)(=O)N1CC(=O)N2[C@@H](CO)[C@H](c3ccc(C#CCN(C)C)cc3)[C@@H]2C1
    -3.6	1.1	0.9

Not all compounds are listed. The share of hits here may be higher or lower than overall.
